# High-throughput results: PubChem, National Center for Advancing Translational Sciences (NCATS)
# Anthrax LT inh: blocks cellular internalization of anthrax lethal toxin; hit rate 0.67% among 70,000; Cells, anthrax lethal toxin internalization, FRET ratio (460/530); Potency, µM (highest dose often 40 µM), inactives show at the top dose activity change, negative = inhibition, hits mostly inhibitors; active = well fitted falling ratio curve with the 530 nm signal flat; inconclusive = other ratio curves, or a change in one channel alone; inactive = flat curves in the ratio and both channels; the % refers to the ratio; also: % is scaled to controls: 0 for no effect and ±100 for the full control effect; nearly all actives have a fitted effect of over 50% in size; tested in ME-180 cells; beta-lactamase reporter
# SmPrx2 inh: Schistosoma mansoni Prx2 inhibition; Potency, µM; S. mansoni Prx2 activity coupled to TGR/GSH (TGR is thioredoxin glutathione reductase), NADPH fluorescence loss, qHTS; some inactives read as strong as hits; hit rate 0.07% among 65,000; active means full or partial inhibition curve with a strong effect at the top dose; inconclusive means weaker partial or single-point curve; inactive means no accepted curve; also: series up to 57 µM; many of its hits are not listed in these tables
#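 Enzyme mix: 100 uM NADPH, 25 nM TGR, 700 uM GSH, 50 nM Prx2 in 100 mM phosphate pH 7.4, 10 mM EDTA, 0.01% Tween-20. 15 min RT with compound; NADPH/GSH added, H2O2 starts reaction; NADPH fluorescence read 8 min.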
# The depositor's hits bear a star; ? = inconclusive; / = no result given; [ ] = another dose, or the depositor's remark. Potency is read from the fitted curve at half-maximal effect. Some of the compounds tested. The share of hits here may be higher or lower than overall.
# Values run as follows: SmPrx2 inh, Anthrax LT inh
> COC(=O)C/C=C\[C@@H](C)[C@@H](/C=N\O[C@@H](C)CN1CCCc2nc(C)c(C)cc21)NS(=O)(=O)c1ccc(C)cc1
  /, 21%[8 µM]
> CCN1CCN(Cc2ccc(NC(=O)CC3Oc4ccc(C)cc4NC3=O)cc2)CC1 (stereo not given)
  >57, 1%
> O=C(NC1CCCCCC1)c1c(F)c(F)c(F)c(F)c1F
  /, -2%
> CC1(C)CC(=O)C(C=Nc2ccc(O)cc2)=C(O)C1
  /, 2%
> Cc1ccccc1NC1=NC(C)(C)N=C(N)N1
  >57, -6%
> C[C@@H]1/C=C\CC(=O)OC[C@H]2O[C@@H](C=C[C@@H]2O)[C@H](C)/C=C\CC(=O)OC[C@H]2O[C@H]1C=C[C@@H]2O
  /, 0%[0.32 µM]
> O=C(NC1CCCC1)C1CCN(S(=O)(=O)N2CCCCC2)CC1
  /, -4%
> COc1cccc(NC(=O)Cc2cn(C)c3ccccc23)c1
  >57, 1%
> Nc1ccc(-c2nc3c(Cl)c(N)ccc3[nH]2)cc1
  >57, ?
> COc1ccc(-c2noc(CSc3nc(N)c(-c4ccccc4)c(=O)[nH]3)n2)cc1
  >57, -7%
> COc1ccccc1NC(=O)Cn1nnc(C(=O)Nc2ccccc2)c1N
  >57, 0%
> O=C(CN1CCCCCC1)NCCc1ccc(F)cc1
  >57, -25%
> O=S(=O)(O)c1cc(N=Nc2cccc3ccccc23)c(O)c2ncccc12
  >57, -8%[8 µM]
> CCCCN1CC(O)=C(c2nc3ccccc3[nH]2)C1=N
  >57, -10%
> COC(=O)c1cc(COc2ccc3c4c(c(=O)oc3c2)CCCC4)c(C)o1
  >57, -12%
> CCC(C(=O)OCC(=O)Nc1c(C)n(C)n(-c2ccccc2)c1=O)c1ccccc1 (stereo not given)
  >57, 5%
> O=C(NCc1ccccc1)NC1CC2CCC(C1)N2Cc1ccco1 (stereo not given)
  >57, -17%
> CCCC(=O)Nc1nc2ccc(NC(=O)c3ccc(Br)o3)cc2s1
  >57, ?
> CCOC(=O)c1cc(C)n(CCCN2CCOCC2)c1C
  >57, 2%
> O=C(c1ccccc1)c1cccn1CC(=O)N1CCN(C2CCCCC2)CC1
  >57, -12%
> COc1ccc(Cc2c(O)nc(SC)n(C(C)=O)c2=O)cc1
  >57, 5%
> CC(C)(C)c1ccc(OCCn2ccccc2=O)cc1
  >57, -10%
> CCc1nc(SCC(=O)N2CCN(c3ccccc3)CC2)c2c(=O)n(C)c(=O)n(C)c2n1
  >57, 10%
> O=C(C1=C(O)C(=O)N(CCOCCO)C1c1cccs1)c1cccs1 (stereo not given)
  >57, ?
> Cn1ncc2c(N3CCOCC3)ncnc21
  >57, 4%
> CC(=O)OC1CC(C)(C)N(OC(=O)CCCN2C(=O)c3ccccc3C2=O)C(C)(C)C1
  >57, 14%
> O=C(CCn1ccc2ccccc21)Nc1ccc(N2CCOCC2)cc1
  >57, -2%
> CSc1nc2ccc3nc(NC(=O)c4cccs4)sc3c2s1
  >57, 8%
> NNC(N)=S
  /, 3%
> O=C(Nc1ccc(Cl)cn1)c1cnn2cccnc12
  >57, 2%

# Going on with the list:
# Values run as follows: SmPrx2 inh, Anthrax LT inh
> C1=C(CCNc2ncnc3nc[nH]c23)CCCC1
  >57, 26%
> CC12CC(NC(=O)N1CCc1ccccc1)c1ccccc1O2 (stereo not given)
  >57, ?
> COC(=O)C1=C(C)Nc2ncnn2C1c1ccco1 (stereo not given)
  >57, 21%
> O=C1c2ccncc2C(=O)N1C1CCCCC1
  >57, 0%
> COc1cc(NC(=O)c2cc(-c3cccc(O)c3)on2)cc(OC)c1OC
  >57, ?
> Cc1noc(C)c1C(=O)Nc1sc(C)c(C)c1C#N
  >57, ?
> Cc1cccc(Nc2ncccc2C(=O)O)c1C
  >57, 7%
> Cn1cnc2c1c(=O)n(Cc1ccccc1)c(=O)n2C
  >57, 2%
> O=C(NCCCN1CCCC1=O)c1ccc(Cl)c(NS(=O)(=O)c2ccc(F)cc2)c1
  >57, -7%
> Cc1cc(N(C)C)c(C#N)c(NCc2ccccc2)n1
  >57, ?
> CCC(=O)Nc1cc(C(F)(F)F)ccc1N1CCOCC1
  >57, 8%
> COc1cccc([C@H]2Oc3ccc(OC)cc3/C(=N\OCC[C@@H]3C=C[C@H](OC(C)=O)[C@H](COC(C)=O)O3)[C@@H]2O)c1
  /, -2%[8 µM]
> CC(C)[C@H](NC(=O)NCc1ccc(Cl)cc1)C(=O)O
  >57, 4%
> CCC(C)(C)n1nnnc1C(c1cccs1)N1CCc2ccccc21 (stereo not given)
  >57, -29%
> COc1cccc(N(C(=O)c2ccco2)C(C(=O)NC2CCCC2)c2cccnc2)c1 (stereo not given)
  >57, -9%
> Cc1ccc(N2C(=O)c3n[nH]c(C)c3C2c2ccccn2)cc1 (stereo not given)
  >57, 1%
> C=CC(C)Sc1nc2c(c(=O)n(C)c(=O)n2C)n1Cc1ccccc1Cl (stereo not given)
  >57, 5%
> COC(=O)c1ccc(COc2cccc(OC)c2)o1
  ?, -20%
> CCC(=O)c1ccc(OCC(=O)N2CCc3cc(OC)c(OC)cc3C2)cc1
  >57, ?
> Cc1csc(NC(=O)C2CCC(C)(C(=O)O)C2(C)C)n1 (stereo not given)
  >57, ?
> COC(=O)CNC(=O)C1(C)C=CC2(CCCCC2)N1C(C)=O (stereo not given)
  /, -4%
> CC(C)CC(c1nnnn1C1CCCC1)N1CCN(c2ccccc2F)CC1 (stereo not given)
  >57, -27%
> Cc1ccnc(SCCn2c(Br)nc3c2c(=O)[nH]c(=O)n3C)n1
  >57, ?
> CC(=NCc1ccc2c(c1)OCO2)C1=C(O)c2ccccc2C1=O
  >57, 13%
> CCN(CC)CCCNC(=O)c1sc2nc(-c3ccc(F)cc3)cn2c1C
  >57, ?
> O=C(Nc1ccc2nn(-c3ccccc3)nc2c1)c1cccnc1
  >57, -2%
> O=c1c(CCc2ccccc2)nc2cncnc2n1Cc1ccccc1
  >57, ?
> O=C(CCc1nc(-c2ccccc2F)no1)NCCN1CCc2ccccc2C1
  >57, -5%
> COCCNc1nc(-c2cccc(NS(C)(=O)=O)c2)nc2ccccc12
  >57, -4%
> CCOC(=O)c1ccc(NC(=O)c2cccc(S(=O)(=O)N3CCOCC3)c2)cc1
  >57, ?

# Other structures.
# Values run as follows: SmPrx2 inh, Anthrax LT inh
> O=C(Nc1ncccn1)c1cccs1
  >57, -4%
> CC1(C)CC(CC(=O)Nc2ccccn2)C(=O)O1 (stereo not given)
  >57, -2%
> CCNc1nc(OCCNS(=O)(=O)c2cc(C)ccc2C)nc(N(C)C)n1
  /, ?
> Cc1cc(NC(=O)CSc2nc3ccccc3c(=O)n2Cc2ccccc2)no1
  >57, -9%
> Cc1ccc(-c2noc(-c3ccccc3C(=O)N3CCN(C)CC3)n2)cc1
  >57, -2%
> O=C(O)CCC/C=C\C[C@@H]1CO[C@H](C(F)(F)F)O[C@@H]1c1ccccc1O
  >57, -11%
> COc1ccc(-n2nnnc2Sc2ccc(S(=O)(=O)N3CCOCC3)cn2)cc1
  >57, ?
> CC(Oc1ccc(Cl)cc1Cl)C(=O)Nc1ncccn1 (stereo not given)
  /, -17%
> CCOC(=O)N1CCN(c2c(NCC3CCN(Cc4cccc(C)c4)CC3)c(=O)c2=O)CC1
  >57, 12%
> CC1CN(c2nc3ccccc3nc2C(C#N)C(=O)NC2CCCCC2)CC(C)O1 (stereo not given)
  >57, ?
> CCOC(=O)C(NC(=O)CC)(Nc1sc2c(c1C(=O)OC)CCN(C)C2)C(F)(F)F (stereo not given)
  >57, 7%
> COCCN(CC(=O)NC1CCCCC1)C(=O)CSc1nc2ccccc2o1
  >57, -17%
> Cc1cc(SCC(=O)N2CCCC2)nc2ccccc12
  >57, -5%
> COC(=O)c1[nH]c2ccccc2c1NC(=O)CN1CCCCCC1
  >57, ?
> CN(C)c1nc2ccccc2c(N)c1-c1ccccc1
  >57, -22%
> CO[C@H]1C[C@@H](O[C@@H]2[C@H](C)[C@H](O[C@@H]3O[C@@H](C)C[C@@H](N(C)C)[C@@H]3O)[C@H](C)C[C@]3(CO3)C(=O)[C@H](C)[C@H](O)[C@H](C)[C@H](C)OC(=O)[C@@H]2C)O[C@@H](C)[C@H]1O
  >57, 2%[3.58 µM]
> Cc1ccc2nc(Cc3ccc(N)cc3)oc2c1
  >57, -4%
> CCOc1ccc(-c2cc(NC(=O)Cn3ncc4c3-c3ccccc3OC4)on2)cc1OCC
  >57, ?
> Cc1ccc(C)c(C(=O)CSc2nnnn2-c2cccnc2)c1
  >57, -11%
> Cc1cccc(NC(=O)CN2C(=O)COc3ccc(Cl)cc32)c1
  >57, ?
> O=C(CSc1cccc2cccnc12)N1CCCC1
  >57, -22%
> Cn1cccc1Cc1nnc(SCC(=O)NCc2ccccc2Cl)n1-c1ccc(F)cc1
  >57, -18%
> CCOc1ccc2c(c1)c1nnc(SCC3CCCO3)nc1n2C (stereo not given)
  >57, -13%
> CCOC(=O)C1CCN(S(=O)(=O)c2c(C)n(C)c(=O)n(C)c2=O)CC1
  >57, 9%
> CN(C)CCN(Cc1ccc(Cl)cc1)c1ccccn1
  >57, -13%[3.58 µM]
> COc1ccc(C2=NOC(C(=O)NCc3ccc(F)cc3)C2)cc1 (stereo not given)
  >57, -17%
> CC(=O)NC12CC3CC(C1)CC(C(=O)OCC(=O)Nc1ncc(Cl)cc1Cl)(C3)C2
  /, -12%
> Cc1ccc2c(c1)nnn2C1CCN(S(=O)(=O)c2ccc(C(=O)N(C)C3CCCCC3)cc2)CC1
  >57, -7%
> COC(=O)[C@@]1(Cc2ccccc2)[C@H]2c3cc(C(=O)N4CCCC4)n(CC4CC4)c3C[C@H]2CN1C(=O)c1ccccc1
  >57, -14%
> CC(=O)Nc1ccc(C2Nc3ccccc3C(=O)N2C2CCCCC2)cc1 (stereo not given)
  /, -3%

# Filtered by structure, those above with a thiophene ring, fused or not (6)
# Values run as follows: SmPrx2 inh, Anthrax LT inh
> O=C(C1=C(O)C(=O)N(CCOCCO)C1c1cccs1)c1cccs1 (stereo not given)
  >57, ?
> CSc1nc2ccc3nc(NC(=O)c4cccs4)sc3c2s1
  >57, 8%
> Cc1noc(C)c1C(=O)Nc1sc(C)c(C)c1C#N
  >57, ?
> CCC(C)(C)n1nnnc1C(c1cccs1)N1CCc2ccccc21 (stereo not given)
  >57, -29%
> O=C(Nc1ncccn1)c1cccs1
  >57, -4%
> CCOC(=O)C(NC(=O)CC)(Nc1sc2c(c1C(=O)OC)CCN(C)C2)C(F)(F)F (stereo not given)
  >57, 7%

# (more compounds)
# Values run as follows: SmPrx2 inh, Anthrax LT inh
> O=C(c1ccco1)n1c(=S)nc2ccccn21
  >57, ?
> O=C(Nc1ccc(F)cc1)N(Cc1nnc2n1CCCCC2)c1ccccc1
  >57, -8%
> CC(=O)C1=C(C)NC(SCC(=O)c2ccccc2)=C(C#N)C1c1ccco1 (stereo not given)
  /, -42%
> CC1CCCC(NC(=O)CSc2nnc(N)s2)C1C (stereo not given)
  >57, -9%
> O=C(NCC1CCCO1)C1CCCN(c2ncccn2)C1 (stereo not given)
  >57, 0%
> CC1CCCCC1NC(=O)CSc1nnc(N)s1 (stereo not given)
  >57, -12%
> CCN(CC(=O)NCc1ccccn1)S(=O)(=O)c1ccc(Cl)cc1
  >57, -4%
> O=c1c(-c2cc(F)cc(F)c2)nc2cnc(Nc3ccccc3)nc2n1C[C@H]1CCCO1
  >57, ?
> O=C(CSc1ccc2nnc(-c3cccnc3)n2n1)NCC1CCCO1 (stereo not given)
  >57, 11%
> CC1(C)CC(=O)C2=C(C1)NC(=O)CC2c1cc2c(cc1Br)OCO2 (stereo not given)
  >57, 10%
> COc1cc(OC)cc(C(=O)Nc2ccccc2NC(C)=O)c1
  /, -1%
> COC(=O)c1ccc(COc2ccc(C3C4=C(CCCC4=O)Nc4onc(C)c43)cc2)cc1 (stereo not given)
  >57, ?
> COC(=O)c1c(F)c(F)c(N2CCOCC2)c(F)c1F
  >57, 18%
> CCOc1ccc(CCNC(=O)C2CCCN(c3nn4c(=O)cc(C)nc4s3)C2)cc1 (stereo not given)
  >57, -2%
> C[C@@H]1[C@H](C)CC[C@@]2(C(=O)O)CC[C@]3(C)C(=CC[C@H]4[C@@]5(C)CC[C@@H](O)C(C)(C)[C@@H]5CC[C@@]43C)[C@@H]12
  >57, -11%[3.58 µM]
> CCOc1cc(C)c(C(C)C)cc1S(=O)(=O)n1ccc(C)n1
  >57, -6%
> O=C(Nc1ncnc2sc3c(c12)CCCCC3)c1ccco1
  >57, 4%
> CNc1nc(SC)nc(N2CCOCC2)n1
  >57, 1%
> CC(C)C(=O)N(c1ccc(F)cc1)C1C=CS(=O)(=O)C1 (stereo not given)
  >57, -2%
> Cc1cc(C(=O)Nc2cccnc2)no1
  >57, 14%
> Cc1ccc2[nH]c(=O)c(CN(Cc3ccc4c(c3)OCO4)Cc3nnnn3C3CCCC3)cc2c1
  >57, -15%
> CCS(=O)(=O)NCCCCc1ccccc1
  >57, -12%
> C[C@@]12CC[C@H]3[C@@H](CC=C4C[C@H](OS(=O)(=O)O)CC[C@]43C)[C@H]1CCC2=O
  >57, ?
> COc1ccc2[nH]c(=O)c(CN(C(=O)c3ccccn3)C3CCCCC3)cc2c1
  >57, -3%
